Compound activity from PubChem BioAssay.
MLL AF4-AF9 inh: inhibitors of AF4 peptide binding to AF9, primary screen, biochemical, AlphaScreen, biotin-AF4 peptide, FLAG-AF9, single point. inhibition, % at 10 µM. 350,000 tested, 0.47% active. AID 651704, 2012;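 active = every replicate reaching a set inhibition limit, whatever the replicate mean, cut at about 25% in these data; inconclusive = mean inhibition reaches that limit but some replicates miss it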;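 note: 0% = plate neutral control median and 100% = total signal loss; the record names both 10 and 1 µM as test concentration; the first replicate is given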
Target sequence (P42568 whole entry, looked up): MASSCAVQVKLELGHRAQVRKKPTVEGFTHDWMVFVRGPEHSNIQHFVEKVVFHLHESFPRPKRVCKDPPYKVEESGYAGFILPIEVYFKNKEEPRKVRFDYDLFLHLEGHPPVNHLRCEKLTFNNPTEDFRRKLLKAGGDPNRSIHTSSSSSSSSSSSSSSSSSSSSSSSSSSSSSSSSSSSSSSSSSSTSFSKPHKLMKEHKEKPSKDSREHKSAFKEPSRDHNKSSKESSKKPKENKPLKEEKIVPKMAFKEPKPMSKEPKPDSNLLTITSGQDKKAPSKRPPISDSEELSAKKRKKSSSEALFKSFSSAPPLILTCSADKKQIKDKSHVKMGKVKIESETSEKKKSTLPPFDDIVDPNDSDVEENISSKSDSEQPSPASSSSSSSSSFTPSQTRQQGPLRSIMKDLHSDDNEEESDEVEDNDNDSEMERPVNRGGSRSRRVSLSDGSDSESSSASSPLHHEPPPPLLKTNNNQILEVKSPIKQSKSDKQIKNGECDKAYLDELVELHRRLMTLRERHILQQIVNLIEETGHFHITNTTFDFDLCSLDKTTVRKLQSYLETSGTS
E coli growth: E. coli growth inhibition, primary screen, OD600 | Escherichia coli growth, 23 h; hits give low values | OD600 absorbance (no concentration beside the values) | 330,000 tested, 0.21% active;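 active = OD600 absorbance below the run mean of sample wells minus 3.6 SD, in any replicate, cut at about 0.56 in these data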;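 note: stock transfer was 300 nL into about 60 µL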
UCH37 inh: inhibitors of human UCH37 deubiquitinase, primary screen, biochemical, Ub-AMC cleavage, fluorescence; purified proteasome/UCH37; 330,000 tested, 0.33% active; Ubiquitin carboxyl-terminal hydrolase isozyme L5 (Homo sapiens), Q9Y5K5; inhibition, % (test concentration not listed);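 active = mean of two replicates above 20%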;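 note: 0% = compound-free wells with enzyme and 100% = wells lacking proteasome; stock transfer was 100 nL into about 20 µL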
Target sequence (Q9Y5K5 whole entry, looked up): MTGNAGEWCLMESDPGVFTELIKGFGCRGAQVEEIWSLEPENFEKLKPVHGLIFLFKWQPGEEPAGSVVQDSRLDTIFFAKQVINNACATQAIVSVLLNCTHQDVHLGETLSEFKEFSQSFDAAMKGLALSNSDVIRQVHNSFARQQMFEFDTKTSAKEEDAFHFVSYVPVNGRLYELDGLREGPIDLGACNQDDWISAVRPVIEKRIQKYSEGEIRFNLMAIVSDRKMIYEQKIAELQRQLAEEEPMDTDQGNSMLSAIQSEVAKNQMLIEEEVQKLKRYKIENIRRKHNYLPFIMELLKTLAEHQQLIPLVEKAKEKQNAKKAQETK
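Assay system: Proteasome-bound UCH37. Buffer or medium: pH 7.4 Tris-HCl (50 mM) with ovalbumin, ATP-MgCl2, DTT. Incubation: 30 min preincubation with enzyme, 25 min cleavage at room temperature. Measured by: fluorescence, ex 355 nm, em 460 nm. Read-out basis: percent inhibition. Control set: wells without proteasome as full block, compound-free enzyme plus substrate as uninhibited.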
Beta cell apopt: inhibitors of cytokine-induced beta cell apoptosis, primary screen, luminescence. 300,000 tested, 0.8% active. INS-1E cytokine-induced death, ATP luminescence, 48 h; percent of positive-control rescue, neutral wells zero. protection from apoptosis, % (test concentration not listed). AID 435005, 2010;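 active = all replicates at 75% or more, or half of them and the mean; inconclusive = half reach 75% but not the mean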;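 note: 0% = cytokine-treated negative control wells and 100% = positive control rescue; higher means more ATP so stronger rescue from cytokine killing; wells of about 40 µL received 100 nL stock; the first replicate is given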
FGF22 binding: binders of human FGF22 protein, primary screen, FGF22 synaptogenesis inhibitor project, biophysical, thermal shift, single point | recombinant FGF22 thermal shift, SYPRO orange fluorescence; percent of sucrose octasulfate shift, DMSO zero | calls only at 9.99 µM | 340,000 tested, 1.5% active | AID 651658, 2012;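 active = melting point raised past a set limit in the mean and every replicate; inconclusive = no clear call; three in four hits are not shown here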
Target sequence (Q9HCT0 whole entry, looked up): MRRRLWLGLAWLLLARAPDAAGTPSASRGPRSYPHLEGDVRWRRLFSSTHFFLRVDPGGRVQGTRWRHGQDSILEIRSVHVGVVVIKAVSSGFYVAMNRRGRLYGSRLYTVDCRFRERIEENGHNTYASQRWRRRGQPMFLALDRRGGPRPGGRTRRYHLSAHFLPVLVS
T cruzi repl: inhibitors of intracellular T. cruzi growth, primary screen, luminescence, NIH3T3 host cells | T. cruzi beta-gal in NIH3T3, 90 h | inhibition, % (concentration not given with the values) | 300,000 tested, 1.4% active | AID 1885, 2009;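 active = mean inhibition across valid replicates above about 55%, limit read from the data; inconclusive = mean below that limit but half or more replicates reach it; inactive = mean below it, under half of replicates reach it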;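 note: signal also drops with host cell toxicity which is not excluded here; 0% = plate median of DMSO wells and 100% = zero luminescence signal; higher percent means less beta-gal luminescence so fewer parasites; stock transfer was 50 nL into about 50 µL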
A1 inh: caspase 3/7 activation in MEF A1-2A-BIM cells, primary screen, A1 inhibitor project, cell-based, luminescence, HTS; Caspase-Glo 3/7 luminescence, 3 h; percent of clofoctol response, vehicle zero; caspase activation, % (test concentration not listed); 330,000 tested, 0.066% active;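 active = over half of replicate activation scores above 10%, or exactly half above 10 with the replicate mean above 10; inconclusive = replicate mean below 10 yet half the replicates above 10; inactive = over half of replicates below 10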;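 note: wells of about 30 µL received 50 nL stock; many hits fall short of the cut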
rRNA inh HTS: reduced GFP signal of wild-type E. coli, primary screen, bacterial rRNA inhibitor project, GFP/RFP fluorescence, OD600, single point; E. coli WT GFP vs humanized-ribosome RFP mutants, 24 h; hits give low values; DMSO median 0, no signal -100; AID 720706, 2013; 350,000 tested, 1.6% active; GFP signal change (wild-type ribosome), % (test concentration not listed);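 active = significant combined selectivity score with lowered wild-type GFP, culture density cut under 30%, mutant RFP and density less affected; inactive = any of these conditions unmet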; note: one replicate is shown; some compounds called inactive have numbers as strong as hits
rRNA inh HTS OD600: also measured in rRNA inh HTS; calls as there; OD600 change, %; measured here: OD600 growth;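 optical density of the mix in the first replicate; 0 = DMSO median and -100 = no signal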
rRNA inh HTS RFP: also measured in rRNA inh HTS; calls as there; RFP signal change, %; measured here: RFP humanized mutant strains;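 first replicate; 0 = DMSO median and -100 = no signal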
Numbers without * were called inactive; i = inactive; ? = inconclusive; . = not tested or not shown. Some of the compounds tested (hit frequency here may not be typical).

SMILES	MLL AF4-AF9 inh	E coli growth	UCH37 inh	Beta cell apopt	FGF22 binding	T cruzi repl	A1 inh	rRNA inh HTS	rRNA inh HTS OD600	rRNA inh HTS RFP
CC(=O)N/C(=C\c1ccccc1)C(=O)NCC(=O)O	-2.2	0.68	5.1	.	i	.	.	.	.	.
CC(C)C(C(=O)O)N1CCS(=O)(=O)CC1 (centres undefined)	-1.7	0.71	0.0	0	i	-15	0.0	5	-1	-3.2
CC1CC(C)CN(CCCNC(=O)c2ccc(CNS(=O)(=O)c3ccc(F)cc3)cc2)C1 (centres undefined)	5.4	0.7	1.7	0	i	3	0.6	7	6	-0.3
C=CC[C@]12CC=CC(=O)[C@@]1(O)O[C@H](c1ccc(OC)c(OC)c1)[C@H]2C	-0.7	0.77	4.7	-6	i	22	-0.3	1	1	-7.8
CCOC(=O)c1cnc2c(OC)cccc2c1N1CC(C)CC(C)C1 (centres undefined)	5.2	0.66	3.0	2	i	16	0.6	-18	-35	7.3
COc1ccccc1CNC(=O)CCNC(=O)c1ccco1	-19	0.69	1.5	.	i	.	.	0	-2	-1.6
CCOc1ccc(OCCOC(=O)C2CCN(S(=O)(=O)c3ccc(C)c(C)c3)CC2)cc1	1.3	0.74	1.7	-7	i	-1	1.0	10	6	-0.2
O=[N+]([O-])c1ccc(N2CCN(Cc3ccccc3)CC2)s1	3.6	0.66	7.2	7	i	10	0.7	12	24	1.3
CN(CCOc1ccc(Cl)cc1)C(=O)c1ccc(S(=O)(=O)N2CCOCC2)cc1	0.3	0.67	1.7	1	i	15	-1.5	-15	-9	-2.5
COc1ccc(CNCc2ccc(OC)c3ccccc23)cc1	5.2	0.67	1.2	.	i	20	-0.1	6	-14	2.7
Cc1ccsc1C(=O)N1CCN(c2ncccn2)CC1	-1.5	0.7	1.4	0	i	.	0.3	3	-3	1.0
Cc1ccccc1C(=O)NNC(=O)C(=O)Nc1cccc(Cl)c1C	.	0.65	4.7	-4	.	5	-0.4	.	.	.
COc1ccc(NC(=O)CNc2ccc(C#N)cc2)cc1	0.4	0.7	2.3	-2	i	-4	-0.1	-3	1	-4.1
CCOC(=O)C1(C)NC(c2ccccc2F)C2C(=O)N(c3cccc(C(C)=O)c3)C(=O)C21 (centres undefined)	.	0.72	-0.4	-1	.	-6	-0.3	.	.	.
O=C(CC1C=CCC1)Nc1ccccc1 (centres undefined)	-0.9	0.69	-0.1	.	i	.	.	1	6	-1.8
CCN(CCNC(=O)C1CCN(c2nnc(-n3cccc3)s2)CC1)c1ccccc1	8.0	0.77	5.5	.	i	-26	-0.2	-4	-7	-7.9
NC(=S)NNc1ccc(Cl)c(Cl)c1	1.2	0.67	0.0	-9	i	35	0.1	-11	4	-0.6
CC(C)Sc1nnc(Nc2ccccc2)s1	.	0.67	2.5	0	.	4	-5.1	.	.	.
C/C(=N\NC(=O)CNC(=O)c1ccccc1F)c1ccco1	-11	.	.	-6	i	14	-0.4	-4	-5	-2.2
CCOC(=O)C1(Cc2ccc(Cl)cc2)CCN(C(C)Cc2ccc(O)c(OC)c2)CC1 (centres undefined)	19	0.64	4.4	.	i	0	2.5	-31	-32	0.1
O=C(Nc1ccc(N2CCCC2)cc1)c1cc(Br)ccc1Cl	10	0.73	4.1	-1	i	-6	-0.1	10	8	-2.0
CCn1c(/C=C/Nc2ccccc2)[n+](CC)c2ccc(C(=O)OCC(F)(F)F)cc21	-2.0	0.62	8.0	-2	i	-20	1.9	3	3	6.1
COCCCNc1nc2nonc2nc1N1C[C@H]2CC[C@H]1C2	-0.4	0.68	10	-4	i	-17	-0.1	4	3	3.1
COc1cc(/C=N\NC(=O)c2ccc(Cl)cc2)ccc1Oc1ccc([N+](=O)[O-])cn1	2.4	.	.	0	i	-31	0.6	1	0	-0.7
Cc1ccc(CN/C=C/C(=O)c2ccc(Br)cc2)cc1	.	0.77	6.0	-6	.	5	-0.1	.	.	.
CCCCCC(=O)Nc1ccc(C(=O)COC(=O)CN2C(=O)NC3(CCCC3)C2=O)cc1	-11	0.68	4.4	2	i	-5	0.3	-2	2	-3.9
O=S(=O)(Nc1cccc2[nH]ncc12)c1cccs1	-1.1	0.68	0.0	1	i	-4	0.6	12	9	1.1
O=c1c(N2CCOCC2)nsn1Cc1ccccc1	.	0.7	0.6	-8	.	-6	-0.4	.	.	.
Clc1ccc(-c2csc(-c3cccnc3)n2)s1	-0.3	0.67	1.6	-2	i	29	-0.6	3	-5	2.2
O=C(NCCOc1ccccc1)c1cncc(Br)c1	.	0.72	5.7	-2	.	0	0.3	-1	-3	-1.6
Cc1ccc(/C=C2\C(=N)N3N=C(CC(=O)N4CCCCC4)SC3=NC2=O)cc1	-0.9	0.72	3.2	-6	i	-13	0.5	19	14	4.2
CN(CCC#N)C(=S)Nc1ccc(Oc2ccccc2)cc1	0.3	0.64	0.4	-2	i	0	-0.2	-13	-14	-1.5
COc1ccc(S(=O)(=O)N2CCOCC2)cc1NC(=O)c1ccc(-n2nc(C)cc2C)cc1	-7.1	0.69	-20	0	i	-11	-0.2	14	4	-2.1
O=C1CC(N2CCN(c3ncccn3)CC2)C(=O)N1CCc1ccccc1 (centres undefined)	-1.2	0.67	3.0	-1	i	-4	1.0	3	5	0.9
COc1ccc([C@H]2CC(=O)C=C(/C=C/c3ccccc3)C2)cc1	-0.2	.	-0.9	1	i	.	0.4	-27	-35	-13
COc1cccc(NC(=O)CN(C)C(=O)Cn2c(=O)oc3ccccc32)c1	-14	0.65	4.0	-1	i	-10	0.1	7	4	1.7
O=C(Nc1ccc(Cl)cc1)N1CCOCC1	0.7	0.58	2.5	3	i	-10	1.7	-10	-7	-2.3
COc1ccc(C(=O)NCc2ccc3c(c2)OCO3)cc1	-1.1	0.69	4.3	-3	i	-7	0.2	13	6	4.8
CC(C)(C)C(=O)Cn1nnc(-c2ccc(C(F)(F)F)cc2)n1	-4.6	0.69	3.4	-5	i	.	0.5	6	7	-2.5
Cn1cc(/C=C2\SC(=S)N(NC(=O)c3ccccc3)C2=O)c2ccccc21	-0.9	0.69	4.8	5	i	20	-0.4	2	5	-10
Cc1onc(-c2ccccc2)c1-c1nnc(-c2ccccc2C(F)(F)F)o1	-3.7	0.64	2.1	-1	i	25	?	-20*	-1.3*	-0.5*
Cc1cccc(NC(=O)C2C3CCCCC32)c1 (centres undefined)	2.6	0.65	1.4	-8	i	-1	-0.5	12	12	-1.2
COC(=O)C1=C(C)N(Cc2ccc3c(c2)OCO3)C(=O)C1	-1.1	0.71	4.2	-7	i	6	0.7	10	17	-3.0
Cc1cccc(NS(=O)(=O)c2ccc(C(=O)NCC(C)(C)N3CCOCC3)cc2)c1C	-0.2	0.72	4.9	0	i	-5	0.9	1	3	0.1
Cc1ccc(C2=NNC(c3ccc(Cl)cc3)=Nc3ccccc32)o1	.	0.7	4.5	-3	.	1	0.1	.	.	.

An excerpt from above, limited to T cruzi repl, A1 inh and rRNA inh HTS OD600.
smiles | T cruzi repl | A1 inh | rRNA inh HTS OD600
COC(=O)C1=C(C)N(Cc2ccc3c(c2)OCO3)C(=O)C1 | 6 | 0.7 | 17
Cc1cccc(NS(=O)(=O)c2ccc(C(=O)NCC(C)(C)N3CCOCC3)cc2)c1C | -5 | 0.9 | 3

Filtered by structure, those above with a COOH group (2)
SMILES	MLL AF4-AF9 inh	E coli growth	UCH37 inh	Beta cell apopt	FGF22 binding	T cruzi repl	A1 inh	rRNA inh HTS	rRNA inh HTS OD600	rRNA inh HTS RFP
CC(=O)N/C(=C\c1ccccc1)C(=O)NCC(=O)O	-2.2	0.68	5.1	.	i	.	.	.	.	.
CC(C)C(C(=O)O)N1CCS(=O)(=O)CC1 (centres undefined)	-1.7	0.71	0.0	0	i	-15	0.0	5	-1	-3.2

(list continues)
SMILES	MLL AF4-AF9 inh	E coli growth	UCH37 inh	Beta cell apopt	FGF22 binding	T cruzi repl	A1 inh	rRNA inh HTS	rRNA inh HTS OD600	rRNA inh HTS RFP
Cc1ccc(-c2nn(-c3ccccc3)cc2/C=C/C(=O)OCC(=O)NC2CC2)o1	-6.4	0.75	i	-5	i	-7	1.4	3	14	5.1
C[C@@H]1CN(S(=O)(=O)C(C)(C)C)[C@@H](CCO)/C1=C\c1ccccc1	-0.8	0.68	3.8	.	i	.	.	-7	-13	0.2
CC1Cc2ccccc2N1C(=O)c1ccc(F)c(S(=O)(=O)N2CCOCC2)c1 (centres undefined)	2.9	0.7	2.8	0	i	.	0.1	-9	-13	0.9
CC(C)c1ccc(C(O)c2cnc(C(C)C)n2C)cc1 (centres undefined)	-3.6	0.74	3.3	3	i	-2	-0.6	-8	-36	3.4
Cc1ccn2cc(CNS(=O)(=O)c3ccc(Cl)s3)nc2c1	4.3	0.76	2.6	-4	i	-4	-0.5	1	-8	2.3
CC(=O)Nc1ccc(S(=O)(=O)N2CCN(Cc3cccnc3)CC2)cc1	4.1	0.68	1.5	3	i	-2	0.5	6	2	-4.9
CCC(C)(c1ccc(C(=O)OC)s1)c1ccc(C(=O)OC)s1	.	0.7	2.1	4	.	5	0.5	.	.	.
COC(=O)Nc1ccc(S(=O)(=O)N(C)CC(F)(F)C(F)F)cc1	.	0.7	1.3	-4	.	4	-0.5	.	.	.
CC1CCCC(NC(=O)COC(=O)c2ccc(S(=O)(=O)N3CCOCC3)cc2)C1C (centres undefined)	.	0.74	6.7	-5	.	-1	-0.4	6	6	-1.9
CCC(C(=O)N1CCOCC1)n1c(C(=O)OC)cc2occc21 (centres undefined)	-22	0.69	2.2	-6	i	-12	-1.1	9	-1	8.6
O=C(COC(=O)CCCOc1ccccc1)NNC(=O)c1ccc([N+](=O)[O-])cc1	-3.7	0.71	7.5	-3	i	-8	0.2	3	12	3.1
CCC(C)(C)NC(=O)/C=C/c1ccc(OC)c(S(=O)(=O)N2CCOCC2)c1	-0.4	0.72	3.8	-3	i	-1	0.4	3	9	1.5
O=C(Cc1csc(Nc2nc(=S)[nH]c3ccccc23)n1)NCc1ccccc1Cl	.	0.75	4.8	62	.	1	0.8	.	.	.
CCOc1ccc(C(C)=O)cc1CN1C(=O)NC2(CCCCC2C)C1=O (centres undefined)	.	0.72	3.3	5	.	-14	-1.2	.	.	.
CCOCCOC(=O)c1ccc(NC(=O)c2cc(OC)c(OC)c(OC)c2Br)cc1	-0.9	0.71	1.9	-1	i	-33	1.2	3	-7	3.4
O=C(CSc1ncccn1)Nc1cccc2ccccc12	0.1	0.67	3.0	-2	i	-2	0.2	7	7	-1.5
CCc1nnc(NC(=O)C2(C)COC(c3ccccc3)OC2)s1 (centres undefined)	-0.7	0.67	1.3	2	i	-6	1.3	6	7	0.6
